# From PubChem
# NOD2-RIPK2 inh: blocks binding of human NOD2 to RIPK2. AID 624267. inhibition, % at 4.98 µM. O43353. hit rate 0.38% among 360,000. CHO BLA complementation NOD2-RIPK2, CCF4 ratio; in the data active means inhibition above about 21%;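 further: 0% = vehicle only and 100% = reference blocker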
# MC4R barr agon: agonists of human melanocortin 4 receptor (MC4R) beta-arrestin; P32245; U2OS MC4R beta-arrestin complementation, luminescence; percent of melanotan II response, DMSO zero; activation, % at 8.9 µM; hit rate 0.98% among 360,000;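 active means activation above a per-plate cutoff, the mean activation of sample wells on that plate plus 3 SD, cut at about 8% in these data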
# TLR9-MyD88 block: blocks human TLR9 binding to MyD88; CHO BLA complementation TLR9-MyD88, CCF4 FRET ratio; Q9NR96+Q99836; hit rate 0.21% among 340,000; inhibition, % at 4.98 µM;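 active means inhibition above the mean over all tested compounds plus 3 SD, cut at about 21% in these data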;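 further: 0% = DMSO only wells and 100% = clavulanate BLA inhibitor control wells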
# MC4R antag cAMP: human MC4R antagonism in cAMP assay; P32245; MC4R-expressing cells, MTII-stimulated cAMP, LANCE TR-FRET; inhibition, % at 6.5 µM; hit rate 0.48% among 360,000; AID 540295;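 active means inhibition above its plate's cutoff, the mean of tested wells on that plate plus 3 SD, cut at about 29% in these data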;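 further: 0% = Melanotan II alone and 100% = Melanotan II plus saturating MCL0020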
#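 Material – human MC4R-expressing U2OS cells · Repeats – no replicates · Detection – TR-FRET with Eu-cAMP and labeled anti-cAMP, 671 nm · Times – compound 30 min, challenge 1 h, detection 1 h · Compound – single nominal compound dose of 6.5 µM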
# ABHD5 PLIN5 PPI: ABHD5-PLIN5 protein interaction inhibition | hit rate 0.78% among 360,000 | inhibition, % at 4 µM | AID 602281 | Split G. princeps luciferase complementation, luminescence, 4 h;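 active means inhibition above the mean inhibition across every tested compound plus 3 SD, cut at about 22% in these data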;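 further: 0% = DMSO only wells and the 100% control is not disclosed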
# * marks the source's active call; other numbers are inactive results; x = no result given. The list is partial. The share of hits here may be higher or lower than overall.
NOD2-RIPK2 inh,ABHD5 PLIN5 PPI,MC4R antag cAMP,MC4R barr agon,TLR9-MyD88 block,Molecule
5,6,-2,-1.2,-1,CC(N)C(=O)NC(CO)C(O)C(N)C=O (configuration not stated)
-4,4,-9,-0.2,-6,O=C(Cn1c(C(=O)c2ccccc2)nc2ccccc21)c1ccc(Cl)cc1
-10,8,-3,-0.5,3,O=C1NN(c2ccccc2)C(=O)/C1=C/c1ccc(Sc2ccc(Cl)cc2)o1
-3,6,16,-2.1,-13,O=C1NC[C@H](c2ccccc2)OC(=O)[C@@H](Cc2ccc(F)cc2)CC/C=C/C[C@@H]1CC(=O)N(CCO)Cc1ccccc1
3,-1,-2,-1.7,1,C#Cc1cccc(N2C(=O)C3C4C=CC(C3C2=O)C2C(=O)N(c3cccc(C#C)c3)C(=O)C42)c1 (configuration not stated)
0,-1,18,-3.1,-2,CC(=O)c1cn(S(=O)(=O)c2ccccc2)c2ccccc12
-10,6,7,-1.2,x,N#Cc1c(-c2cccs2)cc(-c2cccs2)[nH]c1=O
0,-7,2,-1.7,10,CN1/C(=C\C=O)C(C)(C)c2ccccc21

# A second format for part of the listing above.
Molecule	NOD2-RIPK2 inh	ABHD5 PLIN5 PPI	MC4R antag cAMP	MC4R barr agon	TLR9-MyD88 block
CC(=O)c1cn(S(=O)(=O)c2ccccc2)c2ccccc12	0	-1	18	-3.1	-2
CN1/C(=C\C=O)C(C)(C)c2ccccc21	0	-7	2	-1.7	10
O=C1NN(c2ccccc2)C(=O)/C1=C/c1ccc(Sc2ccc(Cl)cc2)o1	-10	8	-3	-0.5	3
CC(N)C(=O)NC(CO)C(O)C(N)C=O (configuration not stated)	5	6	-2	-1.2	-1

# Part of the list above with just ABHD5 PLIN5 PPI, TLR9-MyD88 block and MC4R barr agon.
SMILES | ABHD5 PLIN5 PPI | TLR9-MyD88 block | MC4R barr agon
O=C(Cn1c(C(=O)c2ccccc2)nc2ccccc21)c1ccc(Cl)cc1 | 4 | -6 | -0.2
O=C1NN(c2ccccc2)C(=O)/C1=C/c1ccc(Sc2ccc(Cl)cc2)o1 | 8 | 3 | -0.5
